Menin MLL FP FL = inhibitors of human menin-MLL interaction, wild-type MLL peptide | FP activity change, % at 61.4 µM | Fluorescence polarization, fluorescein-MLL peptide displacement from menin | 290,000 tested, under 10 active; inconclusive = falling polarisation curve, or a change in total fluorescence; inactive = total fluorescence flat and polarisation flat or rising; no compound was filed as active; the % refers to the polarisation; negative = inhibition;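 further: % of control where 0% means no effect; inhibitors lower the polarisation; unlabelled MLL peptide was the positive control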
ClpP mod = qHTS Assay for Activators of ClpP. ATP-dependent Clp protease proteolytic subunit (Bacillus subtilis (strain 168)), P80244. purified B. subtilis ClpP, FRET peptide cleavage, 20 min. Potency, µM (top dose mostly 57.5 µM), inactives show top-dose activity change, negative = active. 340,000 tested, 1.9% active; active = well fitted falling curve with a large enough effect; inconclusive = small, poorly fitted or top-dose-only effect; inactive = no such curve, though single readings can be large or run the other way; further: potency means the concentration at half of the fitted maximal effect; the source files actives as falling curves though it sought activators and does not explain the sign; nearly all actives have a fitted effect of over 65% in size; many hits overshoot -100%
Target sequence (P80244 whole entry, looked up): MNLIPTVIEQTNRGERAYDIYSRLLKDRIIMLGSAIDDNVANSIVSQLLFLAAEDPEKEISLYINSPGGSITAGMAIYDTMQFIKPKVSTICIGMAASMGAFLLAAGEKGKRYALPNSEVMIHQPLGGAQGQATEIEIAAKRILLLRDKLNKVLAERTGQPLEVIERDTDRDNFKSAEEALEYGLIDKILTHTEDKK
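FRET quenching reversal measured ClpP activation: 10 microg/mL B. subtilis ClpP at pH 8 with the FRET-FV decapeptide, read at 430 nm after 320 nm excitation. The 20-min minus 0-min signal was scaled between DMSO/no-enzyme wells and ADEP (5.8 microM final).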
TRPML1 ag = agonists of human TRPML1 channel; activation, % (concentration not given with the values); TRPML1-expressing cells, Ca2+ dye fluorescence, FDSS; host cell line not named in the record; reference of the full effect not given here; 410,000 tested, 0.12% active; Q9GZU1; in the data active = activation above about 50%; inconclusive = about 30% to 50%; inactive = below about 30%; further: 0% is about no effect; the text of the record puts the active cut at 80%
Target sequence (Q9GZU1 whole entry, looked up): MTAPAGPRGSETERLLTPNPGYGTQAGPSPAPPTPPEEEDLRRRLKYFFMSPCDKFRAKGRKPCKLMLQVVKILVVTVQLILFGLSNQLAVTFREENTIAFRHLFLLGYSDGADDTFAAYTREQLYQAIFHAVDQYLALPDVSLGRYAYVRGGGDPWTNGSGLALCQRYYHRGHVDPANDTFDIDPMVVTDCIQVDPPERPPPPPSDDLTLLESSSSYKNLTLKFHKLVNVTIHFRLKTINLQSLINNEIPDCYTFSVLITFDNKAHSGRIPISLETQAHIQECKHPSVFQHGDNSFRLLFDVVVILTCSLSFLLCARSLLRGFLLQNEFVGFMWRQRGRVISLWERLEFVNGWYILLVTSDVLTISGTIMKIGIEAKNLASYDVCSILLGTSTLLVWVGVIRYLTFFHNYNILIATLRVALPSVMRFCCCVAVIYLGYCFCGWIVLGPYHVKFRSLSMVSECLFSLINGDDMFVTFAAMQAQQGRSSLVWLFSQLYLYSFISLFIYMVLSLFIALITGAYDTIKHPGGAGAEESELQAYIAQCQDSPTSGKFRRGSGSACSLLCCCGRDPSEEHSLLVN
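Agonist activity was taken from a 110 s kinetic Ca2+ dye read on the FDSS after pinning compounds onto TRPML1-DL cells. The cells were seeded at 1,500/well with Tet inducer, incubated about 16 h, then dye-loaded at room temperature.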
TRPML1 inh = blocks the human TRPML1 channel; AID 624415; activity change, negative = inhibition, % (concentration not given with the values); Q9GZU1; TRPML1-inducible cells, Ca2+ dye fluorescence, FDSS; stronger effect = lower value; inhibition of EC80 agonist-evoked calcium signal; 390,000 tested, 0.02% active; in the data active means activity change below about -50%; inconclusive means about -30% to -50%; inactive means above about -30%;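 further: stimulus is agonist 54-4 at its EC80 concentration; on the % scale 0 is the no-effect control and ±100 the full control effect; compound concentration not given in the record; the text of the record puts the active cut at -80%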
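Calcium fluorescence in TRPML1-DL cells induced overnight with Tet: a 110 s read after compound pin addition, then a 110 s antagonist read after challenge with 54-4 at 4 uM final (EC80).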
gsp antag = antagonists of gsp mutant (McCune-Albright syndrome); Potency, µM (highest dose often 76.9 µM), inactives show top-dose activity change, negative = inhibition, hits mostly inhibitors; 340,000 tested, 0.4% active; AID 624288; gsp-mutant cells, cAMP HTRF, 30 min; control for the full effect not named in the record; active = falling curve of any shape with a large fitted effect; inconclusive = falling curve, mostly with a smaller effect; inactive = flat or rising curve; cell line not stated here;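 further: intracellular cAMP measured with PDE inhibitor Ro 20-1724 present during compound exposure; potency means the concentration at half of the fitted maximal effect; on the % scale 0 is the no-effect control and ±100 the full control effect; nearly all actives have a fitted effect of over 65% in size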
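Cells, 2000/well, grown 16–24 h in DMEM 10% FBS with 0.5 mg/ml G418, then compounds plus […] (300 uM addition stock), 30 min at 37C. cAMP read by HTRF (cAMP-d2 and anti-cAMP antibody-K in lysis buffer) after 30 min RT.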
gsp ag = agonists of gsp mutant (McCune-Albright syndrome) | AID 624287 | gsp mutant cells, cAMP HTRF, 30 min; control for the full effect not named in the record | 340,000 tested, 0.13% active | Potency, µM (top dose mostly 76.9 µM), without a hit: at the highest dose activation (cAMP increase), hits mostly activators; active = well fitted activation curve with a large enough effect; inconclusive = small, poorly fitted or top-dose-only effect, or another doubt; inactive = no such curve, though single readings can be large or run the other way; cell line not stated here;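 further: phosphodiesterase inhibitor Ro 20-1724 added with compounds to block cAMP breakdown; potency means the concentration at half of the fitted maximal effect; nearly all actives have a fitted effect of over 60% in size; about a fifth of the inactives were tested at one dose only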
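Cells in DMEM/10% FBS with G418 were pretreated with compounds in DMSO plus […] (300 uM stock) for 30 min at 37C. cAMP was measured by HTRF (cAMP-d2 plus anti-cAMP antibody-K) after 30 min at room temperature.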
Numbers without * were called inactive; ? = inconclusive; . = no result given; & = joins results of further samples; [ ] = another dose, or the depositor's remark.

SMILES	Menin MLL FP FL	TRPML1 inh	gsp ag	ClpP mod	TRPML1 ag	gsp antag
CCCCN1C(=S)NC[C@@H]1Cc1cccc2ccccc12	0.7	-2	-3%	-1.3%	3.3	6%
CNC(=S)N(CCc1c(C)[nH]c2ccc(F)cc12)Cc1cccnc1	-6.1	11	15%	-5.5%	0.0	-8%
CC1CCCCN1C(=O)Cn1nnc(-c2cccnc2)n1 (configuration not stated)	?	7	18%	-4.7%	1.0	6%
COCCNC(=O)c1ccc(N2CC3CC(C2)c2cccc(=O)n2C3)c(NC(=O)c2ccc(F)cc2)c1 (configuration not stated)	.	-1	-1%	-0.4%	-0.1	-1%
COc1ccc(NC(C)C(=O)N2CCN(Cc3ccccc3)CC2)cc1 (configuration not stated)	0.2	-17	-11%	1.4%	1.3	-25%
COCC(C)(C)COS(N)(=O)=O	-5.2	-13	?	-1.8%	0.0	12%
COc1ccc2c(c1)Cc1sc(NC(=O)c3cccc(C)c3)nc1-2	.	2	.	-4.3%	3.6	.
Cc1ccc(Cl)c(OCC(=O)Nc2cccnc2)c1	.	-5	-5%	-0.9%	0.5	8%
Cc1ccccc1NS(=O)(=O)c1ccc(OCC(=O)NCc2ccco2)cc1	2.5	17	-10%	-1.7%	0.1	1%
O=C(CCCN1C(=O)/C(=C/c2cccs2)SC1=S)Nc1ccc(O)cc1	7.3	5	13%	.	3.1	-10%
CCOC(=O)c1cc2c(=O)n3ccccc3nc2n(CCCOC)c1=NC(=O)c1cc2ccccc2o1	.	-8	.	3.9%	0.4	.
CSc1ccccc1OCc1cc(C(=O)NCc2ccc(C)s2)no1	6.8	20	-4%	0.8%	2.0	11%
CCN(CC)C(=O)CSc1nnc([C@@H](N)C(C)C)o1	4.8	18	3%[15.4 µM]	0.6%	-0.1	-7%
CCn1c(=O)c2c(nc(SCC(=O)NC3CCCC3)n2C)n(C)c1=O	1.6	-8	16%[15.4 µM]	.	0.4	7%
Nc1c(C(=O)Nc2ccc(Cl)cc2)oc2ccccc12	2.8	26	-61%[inhibitor]	4.8%	0.1	-12%
O=C(COC(=O)c1cncc(Br)c1)NC1CCCCCC1	-2.3	8	?	.	0.0	6%
CC(=O)Nc1ccc2[nH]c3ccccc3c2c1	1.4	-1	-43%[inhibitor]	-20%	-0.3	0%
Cc1nonc1OCC(C)(COc1nonc1C)NC(=O)c1ccc(Cl)cc1	-1.5	-5	-49%[inhibitor]	-0.6%	-0.7	-9%
N#Cc1cccnc1N1CCN(C(=O)c2cccs2)CC1	-11	1	49%	3.6%	0.2	1%
Cc1noc(C)c1C(=O)NC1=NCCS1	-1.1	4	28%	-1.3%	0.6	5%
CC(C)CN(C(=O)CSc1nncn1-c1ccccc1)c1c(N)n(CC(C)C)c(=O)[nH]c1=O	-13	13	-17%[15.4 µM]	-4.0%	-0.3	1%
CCCC(=O)NNc1cc(=O)c2c(=O)n(C)c(=O)n(C)c2[nH]1	0.9	15	44%	-1.8%	-0.4	16%
O=C(CCN1C(=O)c2ccccc2C1=O)Nc1ccc(-c2nc3ccccc3o2)cc1	2.0	16	-32%[inhibitor]	1.6%	-0.6	3%
COCc1[nH]nc2c1C1(C(=O)Nc3ccc(F)cc31)C(C#N)=C(N)O2 (configuration not stated)	1.2	11	-17%	-1.6%	-0.7	8%
O=C(COC(=O)c1ccc(CO)cc1)c1ccc(S(=O)(=O)N2CCCCC2)cc1	.	11	27%	0.3%	-0.3	?
O=c1[nH]c2ccccc2nc1NCc1ccccc1	-0.5	23	-36%[inhibitor]	.	2.1	2%
Cc1sccc1/C=N/NC(=O)c1ccco1	.	1	-2%	-0.6%	-0.6	-1%
CCCNC(=O)Cn1c(-c2ccc(F)cc2)cc(C(=O)OCC)c1C	2.4	8	4%[15.4 µM]	.	0.9	-2%
O=C(Nc1cc(=O)[nH]c2nc(-c3ccccc3)nn12)c1ccccc1Cl	13	3	6%[15.4 µM]	.	1.9	-13%
COC(=O)c1ccc(CSc2ccccc2NC(=S)Nc2cccc(SC)c2)o1	.	11	1%	-1.8%	-0.6	.
COc1ccc(C(CC(=O)Nc2ccc(F)c(Cl)c2)N2Cc3ccccc3C2=O)cc1OC (configuration not stated)	.	-20	.	-0.3%	2.1	.
O=C(COC(=O)Cc1cccs1)Nc1cccc(S(=O)(=O)N2CCOCC2)c1	.	-8	14%[15.4 µM]	.	-0.9	10%
CCOC(=O)C1=C(COC(=O)c2ccc(OC(C)C)cc2)NC(=O)NC1C (configuration not stated)	.	-4	15%	1.0%	2.7	13%
Cc1ccccc1-c1nc2c3c(-c4ccccc4)c(-c4ccccc4)oc3ncn2n1	.	-2	.	-14%	0.1	.
Cc1noc(C)c1C(=O)Nc1sccc1C(N)=O	.	5	-26%	-4.2%	-0.5	7%
COc1ccc2sc(-c3ccccc3OC)c(-c3ccc(O)cc3)c2c1	.	-14	.	-22%	0.7	-17%
Cc1ccccc1N/C(=N/S(=O)(=O)c1cc(F)ccc1F)c1ccccc1	.	9	-38%[inhibitor]	-2.4%	-0.2	?
CCN(CC)CCNC(=O)Cn1cnc2sc(C)c(S(=O)(=O)N3CCOCC3)c2c1=O	3.2	4	-30%	-0.9%	0.4	-2%
COc1ccc(S(=O)(=O)NC2CC(=O)N(c3cccc(F)c3)C2)cc1OC (configuration not stated)	.	11	-3%[15.4 µM]	1.0%	-0.1	7%
Cc1c(Cc2ccc3c(c2)OCO3)sc(NC(=O)C2CC2)c1C(N)=O	11	1	10%	.	0.1	2%
Cc1ccc(CSCCNC(=O)CN(c2cc(C)ccc2C)S(C)(=O)=O)cc1	0.9	-8	-42%[inhibitor]	.	0.7	-18%
CCOC(=O)COc1cccc2c(=O)n(CC(=O)N3CCN(C(=O)OCC)CC3)ccc12	2.6	-13	16%	-15%	0.3	6%
O=C(NCCC(=O)N1CCN(c2ccccc2F)CC1)c1ccco1	.	-10	-38%[inhibitor]	-4.9%	0.8	6%
Cc1ccccc1NC1=C/C(=N\S(=O)(=O)c2cccs2)c2ccccc2C1=O	2.5	33	-41%[inhibitor]	0.3%	2.8	9%
CCCN(CCC)C(=O)Cn1c(=O)n(-c2ccc(CC)cc2)c(=O)c2ccc(C(=O)NCCc3ccccc3)cc21	.	7	.	-12%	1.2	.
Cc1cccc(-c2ncc(CN3CCN(C4CCCC4)C(CCO)C3)cn2)c1 (configuration not stated)	0.7	-9	-6%[15.4 µM]	.	-0.4	8%
CCN1CCN(C(c2ccc(F)cc2)c2c(O)cc(C)n(CCOC)c2=O)CC1 (configuration not stated)	.	-12	.	0.6%	0.0	.
CSc1ncccc1C(=O)N1CCCC(C(=O)c2cc(F)ccc2F)C1 (configuration not stated)	-0.3	-14	-9%	-0.8%	0.1	1%
COc1cccc(NC(=O)COC(=O)/C=C/c2ccco2)c1	.	2	-11%	0.9%	0.1	7%
COc1ccccc1C(=O)NC(=O)CSc1nnnn1C	.	1	-11%	-8.3%	0.3	0%

Given field by field: entries from further up.
Cc1ccc(CSCCNC(=O)CN(c2cc(C)ccc2C)S(C)(=O)=O)cc1
- Menin MLL FP FL = 0.9
- TRPML1 inh = -8
- gsp ag = -42%[inhibitor]
- ClpP mod = .
- TRPML1 ag = 0.7
- gsp antag = -18%

CCOC(=O)COc1cccc2c(=O)n(CC(=O)N3CCN(C(=O)OCC)CC3)ccc12
- Menin MLL FP FL = 2.6
- TRPML1 inh = -13
- gsp ag = 16%
- ClpP mod = -15%
- TRPML1 ag = 0.3
- gsp antag = 6%

O=C(NCCC(=O)N1CCN(c2ccccc2F)CC1)c1ccco1
- Menin MLL FP FL = .
- TRPML1 inh = -10
- gsp ag = -38%[inhibitor]
- ClpP mod = -4.9%
- TRPML1 ag = 0.8
- gsp antag = 6%

Cc1ccccc1NC1=C/C(=N\S(=O)(=O)c2cccs2)c2ccccc2C1=O
- Menin MLL FP FL = 2.5
- TRPML1 inh = 33
- gsp ag = -41%[inhibitor]
- ClpP mod = 0.3%
- TRPML1 ag = 2.8
- gsp antag = 9%

More compounds follow:
SMILES	Menin MLL FP FL	TRPML1 inh	gsp ag	ClpP mod	TRPML1 ag	gsp antag
COc1ccc(N2CCN(C(=O)CN3C(=O)NC4(CCCCCC4)C3=O)CC2)cc1	.	-8	-15%	-3.0%	0.3	-2%
C/C(=N/NC(=O)c1cccs1)c1cccs1	-0.3	6	-82%[inhibitor]	.	-0.2	12%
c1ccc(COc2ccccc2CNC23CC4CC(CC(C4)C2)C3)cc1	-6.2	7	10%	.	1.5	7%
CN(CC(=O)Nc1ccccc1Cl)C1CCS(=O)(=O)C1 (configuration not stated)	.	14	-9%	1.7%	-1.6	8%
CCC(CC)C(=O)N1CC(=O)Nc2ccc(F)cc2C1c1ccccc1 (configuration not stated)	-4.0	-15	-13%	0.2%	1.4	1%
CC(=O)c1ccc(NC(=O)CSC2=Nc3ccccc3N=C(c3ccc(F)cc3)C2)cc1	.	-4	.	-0.7%	-0.2	.
Cc1cccnc1Nc1nc(-c2ccc(O)cc2O)cs1	2.9	-7	3%	-0.4%	0.8	6%
c1ccc(-c2csc(N3CCc4ccccc4C3)n2)cc1	1.7	1	2%	0.6%	-0.8	-5%
CC(C)C(c1nnnn1Cc1ccccc1)N(CCCO)Cc1cc2cc3c(cc2[nH]c1=O)OCO3 (configuration not stated)	?	59	6%	32µM*	0.2	-9%[15.4 µM]
CCOc1ccc(CNC(=O)c2ccc(Sc3ccc(C)cc3)c(N)c2)cc1OC	.	-5	.	4.2%	-0.4	.
CC(C)OC(=O)N(C)C[C@@H]1OCc2ccccc2-c2c(n(C)c3ccccc23)C(=O)N([C@@H](C)CO)C[C@H]1C	.	17	-41%[inhibitor]	-6.1%	0.2	.
S=C(NCc1ccccc1)NCc1ccccn1	5.9	-14	-13%[15.4 µM]	-1.3%	-0.5	15%
C/C(=N\NC(=O)CC1(C)OCCO1)c1cccs1	-0.5	5	-40%[inhibitor]	-2.3%	0.5	11%
COc1ccc(SC[C@H](C)CN2CC[C@H](NC(=O)OCc3ccccc3)CCC2=O)cc1	.	11	24%	-4.1%&3.1%	-0.3&-0.1	-20%
O=C(O)COc1ccccc1/C=N/NC(=O)C(O)c1ccccc1 (configuration not stated)	-10	5	-2%[15.4 µM]	0.0%	-0.1	0%
CC(NC(=O)Nc1ccc(Cl)cc1)c1ccc2c(c1)OCO2 (configuration not stated)	0.2	10	-13%	0.6%	0.1	-8%

Outcome played no part in choosing rows (roughly 2.1% active in at least one column).
